Compound activity: PubChem, National Center for Advancing Translational Sciences (NCATS)
Marburg entry inh: Marburg virus entry inhibition | Marburg virus pseudotyped entry inhibition, cell reporter; control for the full effect not named in the record; about a third of the inactives were read at about 46 µM | Potency, µM (doses to about 37.8 µM), without a hit: top-dose activity change, negative = inhibition, actives largely listed as inhibitors | 300,000 tested, 1.8% active | AID 540276; active = well fitted inhibition curve with a large enough effect; inconclusive = small, poorly fitted or top-dose-only effect, or effect the other way; inactive = flat fitted curve, though single readings scatter; tested in HEK293 cells; about a fifth of its hits are not listed in these tables; also: % is scaled to controls: 0 for no effect and ±100 for the full control effect; luciferase read-out
Cruzain Triton: inhibitors of Trypanosoma cruzi cruzain with detergent. 200,000 tested, 0.43% active. Potency, µM, for inactives: max response, negative = inhibition, actives largely listed as inhibitors. P25779. purified cruzain, Z-FR-AMC fluorescence, 0.01% Triton. AID 1478; active = well fitted curve in the direction sought with a large enough effect; inconclusive = small, poorly fitted or top-dose-only effect, or another doubt; inactive = no such curve, though single readings can be large; an effect the other way counts as inactive or inconclusive;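 also: plate controls were neutral wells for no effect and buffer without enzyme for full effect; nearly all actives have a fitted effect of over 40% in size; top concentration of the series not given in the record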
Target sequence (P25779 123-467 limits assumed): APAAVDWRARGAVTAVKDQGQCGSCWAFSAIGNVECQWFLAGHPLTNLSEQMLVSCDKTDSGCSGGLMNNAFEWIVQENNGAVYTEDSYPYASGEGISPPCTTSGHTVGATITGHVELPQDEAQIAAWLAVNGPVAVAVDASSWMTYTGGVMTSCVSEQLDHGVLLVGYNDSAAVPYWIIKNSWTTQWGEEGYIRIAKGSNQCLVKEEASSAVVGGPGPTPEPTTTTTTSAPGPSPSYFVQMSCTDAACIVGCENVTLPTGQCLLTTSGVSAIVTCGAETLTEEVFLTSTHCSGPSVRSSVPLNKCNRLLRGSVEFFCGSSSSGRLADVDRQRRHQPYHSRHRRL
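Cruzain (1.5 nM) preincubated 15 min at RT with compound in 100 mM sodium acetate pH 5.5, 5 mM DTT, 0.01% Triton X-100. Reaction started with 2 uM Z-FR-AMC; AMC fluorescence (ex 360/em 450 nm) change over 60 s gave rate.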
2A StopGo: FMDV 2A StopGo reporter, luciferase signal | AID 1159524 | 410,000 tested, 1.2% active | human cells with a luciferase reporter of 2A StopGo recoding; control for the full effect not named in the record | Potency, µM (doses to about 57.9 µM), for the others: top-dose signal change, negative = less light; active = well fitted falling curve with a large enough effect; inconclusive = small, poorly fitted or top-dose-only effect; inactive = no such curve, though single readings can be large or run the other way; tested in HEK293T cells; also: % is scaled to controls: 0 for no effect and ±100 for the full control effect; nearly all actives have a fitted effect of over 45% in size; luciferase light after 4 h
Cruzain noTriton: cruzain (T. cruzi) inhibition without detergent; P25779; purified cruzain, Z-FR-AMC fluorescence, no detergent; Potency, µM, without a hit: max response, negative = inhibition, hits mostly inhibitors; 200,000 tested, 2.3% active; active = well fitted curve in the direction sought with a large enough effect; inconclusive = small, poorly fitted or top-dose-only effect, or another doubt; inactive = no such curve, though single readings can be large; an effect the other way counts as inactive or inconclusive;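 also: plate controls were enzyme without inhibitor for no effect and buffer without enzyme for full effect; nearly all actives have a fitted effect of over 40% in size; top concentration of the series not given in the record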
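Purified cruzain at 1.5 nM, pre-incubated 15 min with compound at room temperature in 100 mM sodium acetate pH 5.5, 5 mM DTT, 0.00005% Triton X-100. Reaction started with 2 uM Z-FR-AMC; AMC fluorescence increase over 60 s gives rate.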
SARS PLpro yeast: blocks SARS-CoV papain-like protease in a yeast assay; S. cerevisiae expressing SARS-CoV PLpro, growth rescue; control for the full effect not named in the record; 330,000 tested, 0.19% active; Potency, µM (titrated, usually from 32.9 µM), for the others: at the highest dose activity, positive = growth rescue; also: 0% is about no effect; nearly all actives have a fitted effect of over 55% in size; growth read by luminescence after 48 h
NS1 function inh: blocks influenza NS1 protein function; S. cerevisiae slowed by influenza A NS1, growth recovery by OD600; Potency, µM (top dose mostly 46.1 µM), inactives show at the highest dose activity, positive = more growth; 270,000 tested, 0.4% active; also: actives are rising curves; nearly all actives have a fitted effect of over 50% in size
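Read-out: OD600 growth recovery of NS1-expressing budding yeast. Cells grown overnight at 30C in -URA glucose medium, washed, resuspended and diluted 1:100 in 2% galactose assay medium, pH 6.0. Same strain lacking NS1 served as positive control.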
LASV entry inh: Lassa virus entry inhibition; Lassa virus pseudotype entry inhibition, cell reporter; control for the full effect not named in the record; Potency, µM (series often up to 37.9 µM), inactives show top-dose activity change, negative = inhibition, most hits filed as inhibitors; 300,000 tested, 1.2% active; active means well fitted inhibition curve with a large enough effect; inconclusive means small, poorly fitted or top-dose-only effect, or effect the other way; inactive means flat fitted curve, though single readings scatter; tested in HEK293 cells; also: % is scaled to controls: 0 for no effect and ±100 for the full control effect; nearly all actives have a fitted effect of over 50% in size; luciferase read-out
RE007 growth inh: less growth of the S. pombe RE007 Vpr strain; 360,000 tested, 0.21% active; Potency, µM (doses to about 92.2 µM), for inactives: top-dose activity change, negative = less growth; S. pombe RE007 Vpr strain, BacTiter-Glo ATP luminescence, 24 h; control for the full effect not named in the record; active = well fitted falling curve with a large enough effect; inconclusive = small, poorly fitted or top-dose-only effect; inactive = no such curve, though single readings can be large or run the other way;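 also: % is scaled to controls: 0 for no effect and ±100 for the full control effect; nearly all actives have a fitted effect of over 50% in size; the assay follows cell death caused by Vpr and the record does not say whether a fall means rescue or toxicity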
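Fission yeast RE007 carrying one integrated HIV-1 vpr copy, seeded at OD 0.01 in PMG+AL medium with 23 nL pinned compound. Grown 24 h at 30 degrees; viability read by BacTiter-Glo luminescence after 5 min.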
Active calls of the source: *; ? = inconclusive; / = not tested or not shown; & = joins results of further samples; [ ] = remark or other dose. Unless noted, calls follow the shape of the dose curve; as a rule, active means well fitted rising curve with a large enough effect; inconclusive means small, poorly fitted or top-dose-only effect; inactive means no such curve, though single readings can be large or run the other way. Potency is read from the fitted curve at half-maximal effect. Outcome played no part in choosing rows; any-hit rate near 4.7%.

SMILES	Marburg entry inh	Cruzain Triton	2A StopGo	Cruzain noTriton	SARS PLpro yeast	NS1 function inh	LASV entry inh	RE007 growth inh
CCc1cccc2c1NC1(CCCC1)CC2C (stereo unspecified)	-6.1%[46.1 µM]	/	?	/	3.6%	?	-25.3%[46.1 µM]	2.1%
O=C(COC(=O)c1cccc(S(=O)(=O)NCc2ccccc2)c1)NCC1CCCO1 (stereo unspecified)	-5.3%	/	4.6%	/	-5.1%	/	4.5%[46.1 µM]	-2.5%
COc1cccc(C(=O)NC(=S)N2c3ccccc3CC2C)c1OC (stereo unspecified)	-14.4%[46.1 µM]	/	-2.5%	/	-15.5%	-20.6%	0.1%[46.1 µM]	-10.2%
CCOC(CNC(=O)c1ccc(CNC(=O)c2ccc(OC)c(OC)c2)cc1)OCC	-7.1%[46.1 µM]	/	5.3%	/	-12.4%	/	8.0%	1.4%
COC(=O)c1ccc(N2CCOCC2)c(NC(=O)Nc2cccc(OC)c2)c1	-2.6%	-1.8%	-24.6%	-7.5%	7.2%	-180.1%	-1.9%	-3.1%
COc1nc(C)nc(NC(=O)NS(=O)(=O)c2ccc(C)cc2)n1	13.1%[46.1 µM]	3.1%	1.0%	-2.7%	5.0%	0.2%	2.3%	-4.5%
COc1cccc(-c2nc(CS(=O)(=O)CC(=O)NCCCOC(C)C)c(C)o2)c1	-1.9%	3.2%	-3.9%	?	-4.3%	-8.1%	-18.9%	5.8%
CC(C(=O)NCc1ccc2c(c1)OCO2)N1c2cccc3cccc(c23)S1(=O)=O (stereo unspecified)	?	-2.2%	-14.4%	-27.1%	?	9.8%	?	23.5%
O=C(NC(=S)N1CCCCC1)c1cccs1	7.3%	-2.5%	-18.8%	-0.7%	4.1%	2.2%	0.1%	-0.1%
Cc1cc(C)n(CCCNCC(O)c2ccccc2)n1 (stereo unspecified)	-9.6%[46.1 µM]	7.9%	3.5%&8.4%	-4.9%	2.7%	-7.6%	23.9%[46.1 µM]	-10.2%&9.8%
Cc1cc(C)c(NC(=O)CCN2C(=O)c3ccccc3Sc3ncccc32)c(C)c1	/	-0.2%	-13.0%	10.2%	/	/	27.1%[46.1 µM]	/
O=C(CC(=O)c1ccccc1)Nc1ccccn1	10.2%[46.1 µM]	/	5.2%	/	-3.4%	-1.8%	-16.9%[46.1 µM]	13.7%
Cc1cc2ncn(C3CC(=O)N(Cc4ccc(N5CCCC5=O)cc4)C3=O)c2cc1C (stereo unspecified)	-1.5%	1.8%	-26.8%	2.0%	3.7%	-9.5%	/	-10.3%
CCCCCn1c(N)c(C#N)c2nc3ccccc3nc21	-2.8%	1.7%	-14.6%	1.3%	-6.1%	6.6%	12.8%	13.8%
O=C1CCCCC1C(=O)c1ccccc1 (stereo unspecified)	-20.0%&-20.0%[46.1 µM]	/	-4.8%	/	-0.8%	-2.7%	27.8%[46.1 µM]	24.9%
COC(=O)c1sc(NC(=O)c2oc3ccccc3c2C)nc1C	0.4%	2.9%	17.1%	?	4.0%	4.1%[9.22 µM]	?	-18.7%
O=C(CCC(=O)N1CCN(c2ccccn2)CC1)c1cccs1	?	/	42.6%[activator]	/	-4.6%	/	-3.8%	-28.1%
Cn1ccnc1SCC(=O)NC1CC1	-11.1%	5.7%	-9.3%	-7.9%	-8.5%	?	1.5%	2.5%
O=C(c1c[nH]c(C(=O)N2CCN(c3ccccc3F)CC2)c1)c1cccc(Cl)c1Cl	?	/	-29.9%	/	-0.9%	-6.3%	?	1.5%
Cc1cccc(CCNc2nc3ccccc3n3nnnc23)c1	-10.2%	4.0%	-4.6%	-12.0%	3.6%	10.5%	-10.5%	-21.3%
COC(=O)/C(=C\Nc1ccc(Cl)cc1Cl)NC(=O)c1ccc(OC)cc1	?	/	-15.2%	/	0.8%	-2.7%	?	-1.1%
NS(=O)(=O)c1ccc(CNC(=O)C23CC4CC(CC(C4)C2)C3)cc1	-1.4%[46.1 µM]	8.2%	-2.3%	-7.3%	25.2%	2.7%	-2.3%	5.6%
CC(=O)N1CCc2cc(S(=O)(=O)CCC(=O)NCc3ccc(Cl)cc3)ccc21	-27.5%&-27.5%[46.1 µM]	/	?	/	-0.5%	14.2%	-24.1%&-0.2%[46.1 µM]	-17.0%
CCN(CC(=O)NC1CCS(=O)(=O)C1)S(=O)(=O)c1cc([N+](=O)[O-])ccc1C (stereo unspecified)	-7.6%	/	-3.7%	/	-7.4%	/	-0.5%	6.4%
Cc1ccc2[nH]c(=O)c(CN(Cc3cccnc3)C(=O)c3ccncc3)cc2c1	-4.8%	3.6%	3.7%	9.3%	8.3%	4.9%	-21.6%	8.4%
CN1CCC(=O)N([C@H](CN=[N+]=[N-])Cc2ccccc2)CC1	/	/	-6.4%	/	2.0%	7.5%	/	-2.8%
CC(C)CNS(=O)(=O)c1ccc(OCC(=O)NCC2CCCO2)c(Cl)c1 (stereo unspecified)	-0.1%	-1.2%	10.8%	14.3%	9.6%	5.5%	4.1%	5.3%
CCOC(=O)c1nnc2cc(-c3ccc(Br)cc3)nn2c1C	21.4%	3.0%	0.6%	2.7%	0.1%	-13.4%	9.0%	-6.0%
CCCCC(=O)Nc1ccc(NC(=O)c2ccccc2OC)cn1	-12.6%	-0.9%	16.5%	8.9%	-8.0%	-70.4%	-11.6%	0.1%
Clc1ccc(N2CCN(c3ncnc4c3cnn4-c3ccccc3)CC2)cc1Cl	/	2.5%	?	6.7%	/	/	26.3%[46.1 µM]	/
CNC(=O)c1sccc1SCc1c(Cl)cccc1Cl	?	1.9%	-9.5%	-10.2%	-9.2%	-89.2%	14.1%	-6.4%
CCOC(=O)Cn1c(=O)n(C2CCCCC2)c2nc(-c3cccc(OC)c3)nc(C(N)=O)c21	/	0.4%	-17.7%	-11.0%	/	/	0.4%[46.1 µM]	/
O=C(Nc1ccccc1)OCCCc1ccccc1	13.9%[46.1 µM]	/	28.3%	/	-0.9%	/	6.3%	-6.9%
CC1CCc2c(C(=O)NCC3CCCO3)csc2C1 (stereo unspecified)	7.4%	1.1%	/	6.6%	-6.5%	-50.1%	?	-8.6%
CCc1ccc2c(c1)C1(SC(NC(C)=O)=NN1C(C)=O)C(=O)N2CC (stereo unspecified)	-1.1%	/	13.8%	/	1.9%	/	-2.0%	2.2%
COc1ccc(-c2nc(SCC(=O)N3CCCCC3C)n[nH]2)cc1 (stereo unspecified)	/	0.2%	-14.5%	-5.0%	/	/	?	/
COc1ccc(N2CC(NC(=O)C(=O)c3c[nH]c4ccccc34)CC2=O)cc1 (stereo unspecified)	/	-5.9%	-10.1%	-3.1%	/	/	-0.6%[46.1 µM]	/
Cc1ccccc1-c1noc(-c2ccccc2OCC(=O)Nc2cccc([N+](=O)[O-])c2)n1	-16.2%[46.1 µM]	-9.7%	0.0%	-3.2%	/	/	2.1%[46.1 µM]	/
Cc1cccc(N/N=C(\C#N)S(=O)(=O)C(C)(C)C)c1	-15.3%[46.1 µM]	/	-7.3%	/	1.4%	/	-30.3%	10.0%
Cc1c(O)ccc(C(=O)CN2CC(C)OC(C)C2)c1O (stereo unspecified)	/	/	-7.7%	/	7.8%	12.4%	/	-8.9%
CCCCc1nc2ccccc2c(NC(=O)CN2CCCC2)c1CCC	?	2.1%	/	-15.2%	-5.6%	-0.9%	2.4%	-13.0%
Cc1cc(NC(=O)CSc2nnc(-c3cccc(Cl)c3)o2)no1	-18.3%	/	-7.8%	/	-4.4%	-3.2%	-27.9%	-0.4%
CC(=O)Nc1cccc(-n2nnc(SCC(=O)N(C)c3ccccc3)n2)c1	7.9%	/	0.8%	/	-0.3%	0.5%	?	-7.6%
CCOC(=O)CC1COc2ccccc2N1C(=O)c1ccc(C)cc1 (stereo unspecified)	-13.3%	-2.8%	-15.5%	-3.8%	-3.3%	-14.2%	12.4%	-3.3%
Cc1nnc(N/N=C\c2ccc(-c3ccccc3[N+](=O)[O-])o2)n1N	?	14.1µM*	18.8%	12.6µM*	-1.0%	-41.0%	12.2%	-22.7%
NC(=O)c1ccc(SCC(=O)OCC(=O)NCC2CCCCC2)c([N+](=O)[O-])c1	23.9%	/	8.6%	/	-0.9%	/	-0.9%	33.6%
COCCCN(C(=O)C1CCC1)c1c(N)n(Cc2ccccc2)c(=O)[nH]c1=O	-1.2%	/	-23.4%	/	-2.4%	/	-1.8%	-2.3%
Cc1cccc(C(=O)Nc2cccc3c2CCCC3)c1	3.3%	/	22.8%	/	-4.5%	-11.9%	28.2%	8.4%
Cc1ccccc1CSc1ccc(-c2cccs2)nn1	/	-5.5%	5.9%	-24.4%	/	/	-1.2%[46.1 µM]	/
O=C(COc1ccc(/C=N/NS(=O)(=O)c2ccccc2)cc1)NCCc1ccccc1	-16.4%	-2.0%	51.5%[activator]	10.5%	?	4.8%	?	-13.6%
Remaining list, next part.
SMILES	Marburg entry inh	Cruzain Triton	2A StopGo	Cruzain noTriton	SARS PLpro yeast	NS1 function inh	LASV entry inh	RE007 growth inh
Cn1c(=O)c2c(nc(NCCNC(=O)c3ccco3)n2Cc2ccccc2)n(C)c1=O	?	/	?	/	0.3%	1.7%	-1.2%	16.6%
O=c1/c(=C\c2ccc(O)cc2)sc2nc(-c3ccccc3)c(-c3ccccc3)n12	/	/	?	/	5.1%	4.8%	/	6.7%
O=C(Nc1ccc([N+](=O)[O-])cc1NC(=O)c1ccccc1)c1ccccc1	?	/	-17.0%	/	/	/	6.9%[46.1 µM]	14.8%
CCC(=O)NNc1nc2c(F)cccc2s1	-0.1%	/	-7.4%	/	-0.6%	-1.2%	7.9%	5.8%
Cc1ccc2onc(CC(=O)Nc3ccc(C(C)C)cc3)c2c1	/	-8.4%	0.0%	5.1%	/	/	-28.4%[46.1 µM]	/
CCC(c1nnnn1CC1CCCO1)N(CCCO)Cc1cc2cccc(C)c2[nH]c1=O (stereo unspecified)	-8.9%	-2.0%	-23.8%	13.7%	6.8%	7.3%	-2.1%	-8.9%
